Bioassay records from PubChem.
Calb biofilm kill – mixtures killing C. albicans biofilm. C. albicans biofilm persisters + clotrimazole, fluorescence viability; primary screen in compound mixtures of four per well. inhibition, % at 7.6 µM. actives 0.02% (n = 120,000);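 active = inhibition above 30.3% in the primary screen of four-compound pools, then above 30% when the compound was retested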;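 also: compounds exposed to preformed 24 h biofilms for 48 h; the number belongs to the whole pool; some results filed as inactive read as strong as hits; inactives centre near 12; 0% = biofilm with clotrimazole alone and 100% = kill control; retested singly at about 60 µM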
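Test system: C. albicans CAF4-2 wild-type biofilms; buffer or medium: RPMI/MOPS medium, pH 7.0; schedule: 24 h biofilm formation, then 48 h compound exposure, 37 °C; detection: Alamar Blue fluorescence; measure: percent inhibition of biofilm viability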
* marks the source's active call; other numbers are inactive results.

How did COc1cc(NC(=S)N2CCN(c3ccccn3)CC2)c(OC)cc1Cl do in these assays?
Calb biofilm kill: 6

What do the screens show for `Cc1ccc(NC(=O)C(=O)NCCc2c[nH]c3ccccc23)cc1C`?
Calb biofilm kill: 2

What do the screens show for `O=[N+]([O-])c1ccc(Oc2ccc(C(F)(F)F)cn2)cc1`?
Calb biofilm kill: -11

Results for COc1ccc(Cc2n[nH]c(=S)n2-c2ccc3c(c2)OCCO3)cc1 ?
Calb biofilm kill: 8

Results for COC(=O)CN1C(=O)CC(C)(C)Sc2ccccc21 ?
Calb biofilm kill: 12

Results for O=C(COC(=O)Cc1ccccc1F)Nc1cc(S(=O)(=O)N2CCOCC2)ccc1N1CCCC1 ?
Calb biofilm kill: 9

What do the screens show for `CN(C)/C=C/c1oc2ccc(O)cc2c1[N+](=O)[O-]`?
Calb biofilm kill: 9

What do the screens show for `COc1cc2cc(C)c3nnc(SCC(=O)Nc4cc(C)on4)n3c2cc1OC`?
Calb biofilm kill: -2

What do the screens show for `COc1cccc(C(=O)CC(C(=O)O)c2ccc(F)cc2)c1` (stereo unspecified)?
Calb biofilm kill: 13

How did CC(=O)N=C1SC2CS(=O)(=O)CC2N1Cc1ccc(C)cc1 (stereo unspecified) do in these assays?
Calb biofilm kill: 19

Results for Cc1noc(/C=C/c2cccs2)c1S(=O)(=O)N1CCC(C(=O)NCCCN2CCC(C)CC2)CC1 ?
Calb biofilm kill: 12

Results for Nc1c(S(=O)(=O)c2ccccc2)c2nc3ccccc3nc2n1CCN1CCOCC1 ?
Calb biofilm kill: 16

What do the screens show for `CCN(CC)S(=O)(=O)c1ccc(OC)c(NC(=O)c2cc(=O)[nH]c3ccccc23)c1`?
Calb biofilm kill: 9

Results for CCOC(=O)NC(=O)c1cn(N(C)c2ncc(C(F)(F)F)cc2Cl)c(=O)[nH]c1=O ?
Calb biofilm kill: 9

What do the screens show for `CCOC(=O)NC(=O)/C(C=Nc1ccc(Cl)cc1)=C(\C)O`?
Calb biofilm kill: 3

How did CC(=O)c1c(C)[nH]c(C(=O)OCC(=O)N2c3ccccc3NC(=O)C2(C)C)c1C do in these assays?
Calb biofilm kill: 9

How did O=C(O)/C=C/C(=O)NCc1ccccn1 do in these assays?
Calb biofilm kill: 22

Results for Oc1c(C=Nc2ccc(Cl)cn2)sc2ccccc12 ?
Calb biofilm kill: 19

How did COCCNC(=O)[C@H]1C[C@@H]1[C@H](NP(=O)(c1ccccc1)c1ccccc1)c1ccccc1 do in these assays?
Calb biofilm kill: 10

How did N#Cc1sc(C(N)=O)c(-c2ccccc2)c1-c1ccccc1 do in these assays?
Calb biofilm kill: 22

What do the screens show for `COc1ccccc1OCCC(=O)OCC(=O)NCc1ccccc1`?
Calb biofilm kill: 18

How did COCCN1Cc2cccc(C(=O)NCc3ccc4c(c3)OCO4)c2C1=O do in these assays?
Calb biofilm kill: 0

How did CCn1cc(/C=C/C(=O)Nc2ccn(Cc3c(F)c(F)cc(F)c3F)n2)cn1 do in these assays?
Calb biofilm kill: 8

How did CCOC(=O)c1c(NC(=O)c2nn(C)cc2[N+](=O)[O-])sc(C)c1C do in these assays?
Calb biofilm kill: 13

Quoted at random: 3 entries already listed.
How did COCCN1Cc2cccc(C(=O)NCc3ccc4c(c3)OCO4)c2C1=O do in these assays?
Calb biofilm kill: 0

How did CCn1cc(/C=C/C(=O)Nc2ccn(Cc3c(F)c(F)cc(F)c3F)n2)cn1 do in these assays?
Calb biofilm kill: 8

What do the screens show for `O=[N+]([O-])c1ccc(Oc2ccc(C(F)(F)F)cn2)cc1`?
Calb biofilm kill: -11

Next structures follow.
Results for CC(C)(C)CN1CCNC(=O)C1CC(=O)NCCN1CCCc2ccccc21 (stereo unspecified) ?
Calb biofilm kill: -1

Results for COC(=O)Cc1c(O)ccn(C2CC2)c1=O ?
Calb biofilm kill: 10

Results for Cc1nc([N+](=O)[O-])cn1CC(=O)NCCCO ?
Calb biofilm kill: -2

Results for Cc1ccccc1/C(N)=N/OC(=O)c1cccs1 ?
Calb biofilm kill: 15

How did COc1ccc(-c2cc3ncc(C(C)=O)c(C)n3n2)cc1 do in these assays?
Calb biofilm kill: 11

Results for CSc1nn2c(C)c(C)c(C)nc2c1C#N ?
Calb biofilm kill: 14

How did Oc1ccccc1/C=N/N1CCN(c2ccccn2)CC1 do in these assays?
Calb biofilm kill: 23

What do the screens show for `CCOc1ccc(S(=O)(=O)Nc2ccccc2C(=O)N/N=C/c2c(OC)ccc3ccccc23)cc1`?
Calb biofilm kill: 9

Results for O=C(Nc1ccccc1)C1=C[C@H](C2CC2)C[C@H](OCCCCO)O1 ?
Calb biofilm kill: 10

How did C#CCOCCOCCOCCNc1nc(N2CCN(C(=O)[C@H](CCC(=O)O)n3cc(C(N)Cc4ccc(O)cc4)nn3)CC2)nc(N2CCN(C(=O)[C@H](Cc3ccc(O)cc3)n3cc(C(N)[C@H](C)CC)nn3)CC2)n1 (stereo partly specified) do in these assays?
Calb biofilm kill: -3

Results for COc1ccc(NC(=O)c2nc[nH]c2C(=O)NCC(=O)OC(C)(C)C)cc1 ?
Calb biofilm kill: 3

Results for CC1(C)CC(=O)/C(=N/Nc2ccc(Cl)cc2)CO1 ?
Calb biofilm kill: 19

Results for CCOc1ccc(S(=O)(=O)/N=C(/c2ccccc2)N(C)C)cc1 ?
Calb biofilm kill: 15

What do the screens show for `O=C(/C=C/c1cccc2ccccc12)c1ccncc1`?
Calb biofilm kill: 10

What do the screens show for `COc1cc(C2c3c(-c4ccccc4O)n[nH]c3C(=O)N2Cc2ccco2)cc(OC)c1OC` (stereo unspecified)?
Calb biofilm kill: 12

What do the screens show for `Cc1cc(NC(=O)CSc2nnc(-c3ccncc3)n2-c2ccc(F)cc2)no1`?
Calb biofilm kill: -9

What do the screens show for `Cc1ccc(S(=O)(=O)N2CCC(=O)N(C(COCc3ccc(Cl)cc3Cl)Cc3ccccc3)CC2)cc1` (stereo unspecified)?
Calb biofilm kill: 9

How did O=C(Cn1nnc2ccccc21)OCc1ccccc1 do in these assays?
Calb biofilm kill: -11

Results for S=c1[nH]nc(Cc2ccc(Br)cc2)n1/N=C/c1ccc(Cl)cc1 ?
Calb biofilm kill: 16

How did CC(/C=C/c1ccccc1)=N\NC(=O)c1cc(C)nc2ccccc12 do in these assays?
Calb biofilm kill: 19

How did COc1ccc(NC(=O)C2CCCCN2N)cc1OC (stereo unspecified) do in these assays?
Calb biofilm kill: 11

What do the screens show for `CN(C)S(=O)(=O)c1cccc(NC(=O)c2cc(-c3cccs3)nn2-c2cccc(Cl)c2)c1`?
Calb biofilm kill: 1

What do the screens show for `CC(C)N(Cc1cn(C)nc1-c1cccc(Cl)c1)CC1CCC(=O)N1` (stereo unspecified)?
Calb biofilm kill: 20

What do the screens show for `Cc1ccc(S(=O)(=O)NCC(=O)OCc2ccccc2)cc1`?
Calb biofilm kill: 7

What do the screens show for `COc1ccc(-n2c(C)cc(C3=NNC(=NC4CC4)SC3)c2C)cc1`?
Calb biofilm kill: 5

What do the screens show for `Cc1ccc(NC(=S)NNC(=O)c2ccccc2O)c(C)c1`?
Calb biofilm kill: 11

What do the screens show for `CCN1CCN(C(=O)CCc2ccc(S(=O)(=O)NCCc3ccccc3)cc2)CC1`?
Calb biofilm kill: 3

What do the screens show for `COc1ccc(OC)c(/C=C/C(=O)OCC(=O)c2c(N)n(C)c(=O)n(C)c2=O)c1`?
Calb biofilm kill: 15

Results for Cc1ccc(S(=O)(=O)NC(=O)c2cc(C)n(C3CC3)c2C)cc1 ?
Calb biofilm kill: 5

What do the screens show for `CC(OC(=O)C1=COCCO1)C(=O)Nc1cccc(S(=O)(=O)N2CCOCC2)c1` (stereo unspecified)?
Calb biofilm kill: 13

How did CCCCCC(=O)N1CC2(CC(c3cccc(NC(=O)CC)c3)=NO2)C[C@H]1C(N)=O (stereo partly specified) do in these assays?
Calb biofilm kill: 16

Results for Cc1cc(-c2ccccc2)c2c(n1)sc1c(O)cc(=O)[nH]c12 ?
Calb biofilm kill: 14

What do the screens show for `O=C(COC(=O)c1ccc(Cl)c(S(=O)(=O)N2CCCC2)c1)NC1CCCCC1`?
Calb biofilm kill: 5

How did Cc1ccc(NC(=O)C23CCC(C)(C(=O)[C@H]2Br)C3(C)C)cc1 (stereo partly specified) do in these assays?
Calb biofilm kill: 1

How did Cc1cc(C)n2nc(SCC(=O)N3CCc4ccccc43)nc2n1 do in these assays?
Calb biofilm kill: 11

What do the screens show for `CCC(C)C(NC(N)=O)C(=O)NC1CCC(C)CC1` (stereo unspecified)?
Calb biofilm kill: 6

How did CN(C)/N=C/c1ccc(N2CCOCC2)cc1 do in these assays?
Calb biofilm kill: 14

What do the screens show for `COCCN(C(=S)Nc1c(C)cc(C)cc1C)C(C)c1cccs1` (stereo unspecified)?
Calb biofilm kill: 13

Results for COc1cc(OC)cc(C(=O)OCCNC(=O)Cn2cnc3c2c(=O)n(C)c(=O)n3C)c1 ?
Calb biofilm kill: 17

What do the screens show for `Nc1c(-c2ccc(Cl)cc2)cnn1-c1cc(C(F)(F)F)cc(C(F)(F)F)c1`?
Calb biofilm kill: 0

Results for COc1ccccc1C(=O)NNC(=O)c1ccccc1[N+](=O)[O-] ?
Calb biofilm kill: 18

Results for Cc1nn(C(=O)C2CC2)c(C)c1Sc1ccc(Cl)cc1 ?
Calb biofilm kill: 1

How did NCCCC[C@H]1CNC(=O)C(=O)N1CCc1cccc(F)c1 do in these assays?
Calb biofilm kill: -1

Results for Cc1ccc(-c2csc(NC(=O)CSc3nc4ccccc4o3)n2)cc1 ?
Calb biofilm kill: 14

How did COC(=O)c1sc(NC(=O)/C=C/c2ccccc2Cl)nc1C do in these assays?
Calb biofilm kill: 19

How did CCn1cc(C(=O)OCC(=O)c2ccccc2)c(=O)c2ccc(C)nc21 do in these assays?
Calb biofilm kill: 26

What do the screens show for `O=C(O/N=C(\c1ccccc1)c1ccncc1)c1ccccc1F`?
Calb biofilm kill: 27

How did Cc1ccc(OCC(=O)Nc2cc(C)on2)c([N+](=O)[O-])n1 do in these assays?
Calb biofilm kill: -11

Results for COC(=O)c1sccc1NC(=S)Nc1cc(C)cc(C)c1 ?
Calb biofilm kill: 21

How did COCCCNC(=S)Nc1ccccc1C do in these assays?
Calb biofilm kill: 16

Results for COc1ccc(NC(=O)C2CC(=O)OC23CCCCC3)cc1 (stereo unspecified) ?
Calb biofilm kill: 12

Results for COc1ccc(OC(C)C(=O)Nc2cccc(F)c2)cc1 (stereo unspecified) ?
Calb biofilm kill: -4

What do the screens show for `CC(=O)Nc1cc(C(=O)NCc2ccco2)ccc1Sc1ccc(C)cc1`?
Calb biofilm kill: 15

Results for CCOC(=O)C1=C(CNCCOc2ccc(OC)cc2)NC(=O)NC1c1ccc2c(c1)OCO2 (stereo unspecified) ?
Calb biofilm kill: -11

How did O=C(NCc1cccnc1)c1ccc(S(=O)(=O)N2CCCCCC2)cc1 do in these assays?
Calb biofilm kill: -2

Results for O=C1NC(=O)/C(=C/c2ccccc2OCc2ccccc2)S1 ?
Calb biofilm kill: 15

Results for Cn1cnnc1Sc1ccc(/C=C(\CC(=O)O)c2nc3ccccc3s2)cc1[N+](=O)[O-] ?
Calb biofilm kill: 14

How did CCOc1ccc(NC(=O)Nc2cc(C)ccc2OC)cc1 do in these assays?
Calb biofilm kill: 2

How did Cc1ccc(S(=O)(=O)NCCOc2nc(N(C)C)nc(N(C)C)n2)cc1 do in these assays?
Calb biofilm kill: 22

What do the screens show for `CC(C)OC(=O)c1cc(NC(=O)c2nn(C)cc2Br)cc(C(=O)OC(C)C)c1`?
Calb biofilm kill: 15

How did CCOC(=O)CSc1c(-c2ccccc2)c2cc(Cl)ccc2[nH]c1=O do in these assays?
Calb biofilm kill: 10

How did CS/C(=N\S(=O)(=O)c1cccs1)Nc1ccc(Cl)cc1 do in these assays?
Calb biofilm kill: 13

How did CC(O)Cc1cn(CC(=O)N2CCNCC2)nn1 (stereo unspecified) do in these assays?
Calb biofilm kill: 6

How did CCc1nnc(NC(=O)c2ccc(NC(=O)C(C)C)cc2)s1 do in these assays?
Calb biofilm kill: 0

How did CCCCC1=CC2=C(c3ccco3)C(=O)C(C)(OC(=O)c3ccc(OC)cc3)C(=O)C2=CN1C(CO)CO (stereo unspecified) do in these assays?
Calb biofilm kill: 15

Results for S=C1NCN(CCc2ccccc2)CN1Cc1ccccc1 ?
Calb biofilm kill: 7

How did O=C(CN(Cc1ccccc1)S(=O)(=O)c1ccccc1)N/N=C/c1ccccc1C(=O)O do in these assays?
Calb biofilm kill: 25

What do the screens show for `Cc1sc(NC(=O)COc2ccccc2)c(C#N)c1-c1ccccc1`?
Calb biofilm kill: 15

Results for COc1ccc(CC(=O)NC(=S)NNC(=O)COc2c(C)cccc2C)cc1 ?
Calb biofilm kill: 10

Compounds listed so far that have fluorine (10):
What do the screens show for `O=[N+]([O-])c1ccc(Oc2ccc(C(F)(F)F)cn2)cc1`?
Calb biofilm kill: -11

Results for O=C(COC(=O)Cc1ccccc1F)Nc1cc(S(=O)(=O)N2CCOCC2)ccc1N1CCCC1 ?
Calb biofilm kill: 9

What do the screens show for `COc1cccc(C(=O)CC(C(=O)O)c2ccc(F)cc2)c1` (stereo unspecified)?
Calb biofilm kill: 13

Results for CCOC(=O)NC(=O)c1cn(N(C)c2ncc(C(F)(F)F)cc2Cl)c(=O)[nH]c1=O ?
Calb biofilm kill: 9

How did CCn1cc(/C=C/C(=O)Nc2ccn(Cc3c(F)c(F)cc(F)c3F)n2)cn1 do in these assays?
Calb biofilm kill: 8

What do the screens show for `Cc1cc(NC(=O)CSc2nnc(-c3ccncc3)n2-c2ccc(F)cc2)no1`?
Calb biofilm kill: -9

What do the screens show for `Nc1c(-c2ccc(Cl)cc2)cnn1-c1cc(C(F)(F)F)cc(C(F)(F)F)c1`?
Calb biofilm kill: 0

How did NCCCC[C@H]1CNC(=O)C(=O)N1CCc1cccc(F)c1 do in these assays?
Calb biofilm kill: -1

What do the screens show for `O=C(O/N=C(\c1ccccc1)c1ccncc1)c1ccccc1F`?
Calb biofilm kill: 27

Results for COc1ccc(OC(C)C(=O)Nc2cccc(F)c2)cc1 (stereo unspecified) ?
Calb biofilm kill: -4

Not all compounds are listed, so the mix of outcomes need not match the whole.
